Vaccinia inh: Vaccinia orthopox stage-specific inhibition. hit rate 0.01% among 89,000. activity change (mCherry), % (test concentration not listed). Vaccinia-infected cells, mCherry/Venus stage reporter fluorescence; hits give low values; some inactives read as strong as hits;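 active = mCherry past -33% and 40 or more points under the early reporter, replicates agreeing; inconclusive = past -33% without that gap or agreement; tested in A549 cells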;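 also: scaled between vehicle wells and reference inhibitor wells; 23 nL library stock went into each well; one replicate is shown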
Vaccinia inh Venus: further read-out of Vaccinia inh, marked with its call; activity change (Venus), %; measured here: Venus reporter, other viral stage;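 negative = less Venus signal; first of two replicates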
* = called active by the depositor; u = inconclusive; x = no result given; & = joins results of further samples.

SMILES | Vaccinia inh | Vaccinia inh Venus
COc1ccc(S(=O)(=O)N2CCCCN3[C@H](C2)[C@H](c2ccc(C4=CCCCC4)cc2)[C@@H]3CO)cc1 | -5 | -17
O=C(Nc1ccc2c(c1)[C@@H]1C[C@H](CC(=O)N3CCc4ccccc4C3)O[C@@H](CO)[C@@H]1O2)NC1CCCC1 | 3 | 5
COc1cccc(S(=O)(=O)N2C[C@H](O)COC[C@H]3O[C@H](CC(=O)N4CCOCC4)CC[C@@H]32)c1 | 9 | 6
Cc1ccc(S(=O)(=O)N(C)C[C@@H]2OCCCC[C@@H](C)Oc3ccc(NS(=O)(=O)c4c(C)noc4C)cc3C(=O)N([C@@H](C)CO)C[C@H]2C)cc1 | u | x
CCCC(=O)Nc1ccc2c(c1)OC[C@@H](C)N(C(=O)c1cccnc1)C[C@@H](C)[C@H](OC)CN(C)C2=O | 18 | 28
CC(C)CC#Cc1ccc([C@@H]2[C@@H](CO)N3C(=O)CN(S(=O)(=O)c4cccc(F)c4)C[C@H]23)cc1 | u | x
Cc1noc(C)c1NC(=O)NCC[C@H]1CC[C@H](NC(=O)Cc2cccnc2)[C@@H](CO)O1 | 2 | -2
CN1CCN(C(=O)C[C@@H]2CC[C@@H]3[C@H](COC[C@H](O)CN3Cc3cccc(Cl)c3)O2)CC1 | 5 | -4
CCCC#Cc1cnc2c(c1)C(=O)N([C@@H](C)CO)C[C@H](C)[C@@H](CN(C)C(=O)Nc1ccccc1OC)O2 | 12 | 9
COc1ccc(S(=O)(=O)N(C)C[C@@H]2Oc3c(NC(=O)Nc4ccc(F)cc4)cccc3C(=O)N([C@H](C)CO)C[C@@H]2C)cc1 | -21 | -9
COc1ccc(C#Cc2ccc([C@H]3[C@H]4CN(C(=O)Nc5ccccc5)CCCCN4[C@H]3CO)cc2)cc1 | 3 | 5
O=C(c1ccncc1)N1C[C@@H]2[C@H](c3ccccc31)[C@H](CO)N2C(=O)c1ccncc1 | 2 | 11
C[C@@H]1CN([C@@H](C)CO)C(=O)c2c(c3ccccc3n2C)-c2ccccc2CO[C@@H]1CN(C)C(=O)[C@H]1CCCN1C | -25 | -23
CCOC(=O)N(C)C[C@H]1OCc2cn(nn2)CCCC(=O)N([C@@H](C)CO)C[C@H]1C | -1 | 9
CCC(=O)Nc1ccc2c(c1)OC[C@H](C)N(Cc1ccccc1F)C[C@@H](C)[C@H](OC)CN(C)C2=O | -24 | -20
C[C@H](CO)N1C[C@H](C)[C@H](CN(C)Cc2ccc(-c3ccccc3)cc2)Oc2ccc(NC(=O)Nc3ccccc3)cc2C1=O | -25 | -14
OC[C@H]1[C@H](c2ccc(-c3cccc(F)c3)cc2)[C@H]2CN(Cc3cncnc3)CCCCN21 | 0 | -2
CO[C@H]1CN(C)C(=O)c2ccc(NC(=O)C3CCC3)cc2OC[C@@H](C)N(Cc2ccccn2)C[C@H]1C | 8 | 0
C[C@H](CO)N1C[C@H](C)[C@@H](CN(C)Cc2ccccc2)Oc2c(NC(=O)NC3CCCCC3)cccc2C1=O | -14 | -13
C[C@H]1CCCCO[C@H](CN(C)Cc2ccc(Cl)c(Cl)c2)[C@@H](C)CN([C@@H](C)CO)C(=O)c2cc(NS(=O)(=O)c3ccc(F)cc3)ccc2O1 | u | x
COCCN(C[C@@H]1N[C@@H](CO)[C@H]1c1ccc(-c2ccccc2)cc1)C(C)=O | -8 | -2
COc1ccccc1CNC(=O)C[C@H]1CC[C@@H](NC(=O)CN(C)C)[C@@H](CO)O1 | 6 | 17
CCCN1C[C@@H](C)[C@@H](OC)CN(C)C(=O)c2ccc(NC(=O)Nc3ccccc3F)cc2OC[C@H]1C | 4 | 2
O=C(C[C@@H]1CC[C@H]2[C@@H](COC[C@H](O)CN2Cc2ccc(Cl)cc2)O1)NCc1ccccc1Cl | u | x
C[C@@H]1CN([C@@H](C)CO)C(=O)c2cccc(NC(=O)C3CCCCC3)c2O[C@H]1CN(C)Cc1ccccc1 | -26 | -15
C[C@@H]1CN([C@H](C)CO)C(=O)c2cc(NC(=O)NC3CCCCC3)ccc2O[C@@H](C)CCCCO[C@@H]1CN(C)C(=O)C1CCCCC1 | -22 | -7
C[C@@H]1CN([C@@H](C)CO)C(=O)c2cc(-c3ccncc3)cnc2O[C@H]1CN(C)C(=O)C1CCOCC1 | 20 | 11
COc1ccc(CN2CC3(C2)CN(C(=O)CN(C)C)[C@H](CO)c2[nH]c4cc(OC)ccc4c23)cc1 | u | x
CCNC(=O)C[C@H]1C=C[C@H](NS(=O)(=O)c2ccc(F)cc2)[C@@H](CO)O1 | 3 | 7
COCC(=O)N(C)C[C@@H]1Oc2cc(-c3cccc(F)c3)ccc2S(=O)(=O)N([C@H](C)CO)C[C@H]1C | 9 | 5
COc1ccc(S(=O)(=O)N(C)C[C@@H]2OCCCC[C@@H](C)Oc3ccc(NS(=O)(=O)c4ccccc4)cc3C(=O)N([C@H](C)CO)C[C@H]2C)cc1 | u | x
COc1ccc(NC(=O)N(C)C[C@H]2OCc3cnnn3CCCC(=O)N([C@@H](C)CO)C[C@H]2C)c(OC)c1 | 5 | 5
COc1ccc(NC(=O)Nc2ccc3c(c2)C(=O)N([C@H](C)CO)C[C@@H](C)[C@@H](CN(C)C(=O)CCCN(C)C)OCCCC[C@@H](C)O3)cc1 | 26 | 12
COC(=O)[C@H]1[C@H](CO)[C@H]2Cn3c(ccc(-c4ccncc4)c3=O)[C@@H]1N2CCc1ccccc1 | 16 | 14
O=C(C1CCC1)N1CCCCN2[C@H](CO)[C@H](c3ccc(-c4cccc(F)c4)cc3)[C@H]2C1 | -20 | -17
CO[C@H]1CN(C)C(=O)c2ccc(NS(C)(=O)=O)cc2OC[C@H](C)N(Cc2cncnc2)C[C@@H]1C | 14 | 11
CC(C)NC(=O)N(C)C[C@H]1Oc2ccc(N(C)C)cc2C(=O)N([C@@H](C)CO)C[C@H]1C | 14 | 4
CO[C@H]1CN(C)C(=O)c2ccc(NC(=O)Cc3ccccc3)cc2OC[C@H](C)N(C(C)=O)C[C@@H]1C | 19 | 12
C[C@@H]1CN([C@@H](C)CO)S(=O)(=O)c2ccc(C3=CCCC3)cc2O[C@@H]1CN(C)Cc1cccc(C(=O)O)c1 | 6 | -2
CNC[C@@H]1Oc2c(NC(=O)C3CCCCC3)cccc2C(=O)N([C@@H](C)CO)C[C@H]1C | 2 | 6
COc1ccc(NC(=O)N(C)C[C@@H]2OCCCC[C@H](C)Oc3ccc(NS(=O)(=O)c4ccccc4)cc3C(=O)N([C@H](C)CO)C[C@H]2C)cc1 | 36 | 7
C[C@@H]1CN([C@H](C)CO)C(=O)Cc2cc(NC(=O)c3ccncc3)ccc2O[C@H]1CN(C)S(=O)(=O)c1ccccc1 | 0 | -1
COc1ccc(S(=O)(=O)N(C)C[C@H]2Oc3ccc(N(C)C)cc3C(=O)N([C@@H](C)CO)C[C@H]2C)cc1 | -7 | -6
C[C@H]1CN([C@@H](C)CO)S(=O)(=O)c2ccc(C#CC3CC3)cc2O[C@H]1CN(C)Cc1ccc(F)cc1 | -22 | -31
CC(C)NC(=O)N(C)C[C@H]1Oc2cc(C3=CCCC3)ccc2S(=O)(=O)N([C@H](C)CO)C[C@@H]1C | -8 | 0
COc1cccc(C#Cc2ccc([C@@H]3[C@@H](CO)N4C(=O)CN(C(C)=O)C[C@H]34)cc2)c1 | -27 | -26
Cn1cnc(S(=O)(=O)N2CCCCN3[C@H](CO)[C@H](c4ccc(C#CC5CC5)cc4)[C@@H]3C2)c1 | -1 | -3
C[C@H](CO)N1C[C@H](C)[C@@H](CN(C)Cc2ccc(Cl)c(Cl)c2)Oc2ccc(NC(=O)NC3CCCCC3)cc2C1=O | u | x
C[C@H]1CN([C@@H](C)CO)C(=O)c2cccc(NC(=O)Nc3ccc(C(F)(F)F)cc3)c2O[C@H]1CN(C)S(C)(=O)=O | -28 | -20
CCNC(=O)C[C@H]1CC[C@H]2[C@H](COc3ccc(NC(=O)C4CCOCC4)cc3C(=O)N2C)O1 | 9 | 11
Cc1ccc(-c2cnc3c(c2)C(=O)N([C@@H](C)CO)C[C@H](C)[C@@H](CN(C)Cc2ccccc2C(=O)O)O3)cc1 | 10 | 14
CO[C@H]1CN(C)C(=O)c2cc(NS(C)(=O)=O)ccc2OC[C@H](C)N(C(=O)C2CC2)C[C@H]1C | 6 | 13
Cc1noc(C)c1NC(=O)Nc1ccc2c(c1)C(=O)N([C@H](C)CO)C[C@@H](C)[C@H](CN(C)Cc1ccc(C(F)(F)F)cc1)O2 | 13 | 2
C[C@H](CO)N1C[C@H](C)[C@@H](CN(C)Cc2ccccc2)Oc2c(NC(=O)c3ccncc3)cccc2C1=O | -8 | 1
CCCNC(=O)N(C)C[C@H]1Oc2cc(C#C[C@H](C)O)ccc2S(=O)(=O)N([C@H](C)CO)C[C@@H]1C | 13 | -4
C[C@@H]1CN([C@@H](C)CO)C(=O)c2cc(NC(=O)C3CC3)ccc2O[C@@H]1CN(C)S(=O)(=O)c1ccc(Cl)cc1 | -4 | 11
CNC[C@@H]1OCCCC[C@@H](C)Oc2ccc(NC(=O)Nc3cccc4ccccc34)cc2C(=O)N([C@@H](C)CO)C[C@H]1C | 7 | 20
CC(C)CC#Cc1cnc2c(c1)C(=O)N([C@@H](C)CO)C[C@@H](C)[C@H](CN(C)C(=O)c1cnccn1)O2 | 12 | 0
CN1c2ccc(Br)cc2[C@@H]2[C@@H](CCN2S(=O)(=O)c2cccc(F)c2)[C@H]1CO | -23 | -12
C/C=C/c1ccc([C@H]2[C@@H](CO)N(c3nc(C)c(C)s3)[C@@H]2CNCC(C)C)cc1 | 3 | 16
The listing continues.
SMILES | Vaccinia inh | Vaccinia inh Venus
COCC(=O)N(C)C[C@@H]1Oc2ncc(-c3ccc(C#N)cc3)cc2C(=O)N([C@@H](C)CO)C[C@@H]1C | 5 | 12
Cc1cc(C(=O)Nc2cccc3c2O[C@H](CN(C)S(=O)(=O)c2c(C)noc2C)[C@H](C)CN([C@H](C)CO)C3=O)n(C)n1 | 6 | 4
COc1ccccc1C#Cc1ccc2c(c1)O[C@@H](CN(C)Cc1cccnc1)[C@@H](C)CN([C@@H](C)CO)S2(=O)=O | u | x
C[C@H](CO)N1C[C@H](C)[C@H](CN(C)CC2CC2)Oc2ccc(NC(=O)Cc3ccccc3)cc2CC1=O | -2 | -8
O=C(C[C@@H]1CC[C@@H](NC(=O)Nc2ccc(C(F)(F)F)cc2)[C@H](CO)O1)NCc1ccccn1 | -20 | 2
COc1ccc2c3c([nH]c2c1)[C@H](CO)N(C(=O)c1ccccc1)CC31CN(Cc2cccnc2)C1 | 10 | 5
CN1C(=O)c2cc(NC(=O)NCc3ccccc3)ccc2OC[C@H]2O[C@H](CC(=O)O)CC[C@H]21 | 6 | 10
CC(C)C#Cc1ccc2c(c1)O[C@@H](CN(C)Cc1cncnc1)[C@@H](C)CN([C@H](C)CO)S2(=O)=O | 2 | -2
COCC#Cc1cnc2c(c1)C(=O)N([C@H](C)CO)C[C@H](C)[C@H](CN(C)C(=O)c1cnccn1)O2 | 17 | 4
CO[C@@H]1CN(C)C(=O)c2cc(NS(=O)(=O)CC(F)(F)F)ccc2OC[C@@H](C)N(C(=O)NC(C)C)C[C@@H]1C | -5 | 5
Cc1cccc(S(=O)(=O)N2CC[C@@H]3[C@H]2c2cc(Br)ccc2N(C)[C@H]3CO)c1 | u | x
C[C@@H]1CN([C@@H](C)CO)C(=O)c2ccccc2-c2ccccc2CO[C@H]1CN(C)Cc1ccccc1C(F)(F)F | u | x
C[C@H](CO)N1C[C@H](C)[C@@H](CN(C)Cc2ccc3cccnc3c2)OCc2cnnn2CCCC1=O | 0&3 | -1&0
O=C(C[C@H]1CC[C@H](NC(=O)Nc2ccc(C(F)(F)F)cc2)[C@@H](CO)O1)NCc1cccc(F)c1 | -8 | -10
CO[C@@H]1CN(C)C(=O)c2ccc(NS(=O)(=O)c3ccccc3)cc2OC[C@H](C)NC[C@H]1C | 13 | 6

An excerpt of these results, with values under each structure:
Sequence of screens – Vaccinia inh, Vaccinia inh Venus
- CN1c2ccc(Br)cc2[C@@H]2[C@@H](CCN2S(=O)(=O)c2cccc(F)c2)[C@H]1CO
 : -23, -12
- C/C=C/c1ccc([C@H]2[C@@H](CO)N(c3nc(C)c(C)s3)[C@@H]2CNCC(C)C)cc1
 : 3, 16
- COCC(=O)N(C)C[C@@H]1Oc2ncc(-c3ccc(C#N)cc3)cc2C(=O)N([C@@H](C)CO)C[C@@H]1C
 : 5, 12
- Cc1cc(C(=O)Nc2cccc3c2O[C@H](CN(C)S(=O)(=O)c2c(C)noc2C)[C@H](C)CN([C@H](C)CO)C3=O)n(C)n1
 : 6, 4
- COc1ccccc1C#Cc1ccc2c(c1)O[C@@H](CN(C)Cc1cccnc1)[C@@H](C)CN([C@@H](C)CO)S2(=O)=O
 : u, x
- C[C@H](CO)N1C[C@H](C)[C@H](CN(C)CC2CC2)Oc2ccc(NC(=O)Cc3ccccc3)cc2CC1=O
 : -2, -8
- O=C(C[C@@H]1CC[C@@H](NC(=O)Nc2ccc(C(F)(F)F)cc2)[C@H](CO)O1)NCc1ccccn1
 : -20, 2
- COc1ccc2c3c([nH]c2c1)[C@H](CO)N(C(=O)c1ccccc1)CC31CN(Cc2cccnc2)C1
 : 10, 5
- CN1C(=O)c2cc(NC(=O)NCc3ccccc3)ccc2OC[C@H]2O[C@H](CC(=O)O)CC[C@H]21
 : 6, 10
- CC(C)C#Cc1ccc2c(c1)O[C@@H](CN(C)Cc1cncnc1)[C@@H](C)CN([C@H](C)CO)S2(=O)=O
 : 2, -2
- COCC#Cc1cnc2c(c1)C(=O)N([C@H](C)CO)C[C@H](C)[C@H](CN(C)C(=O)c1cnccn1)O2
 : 17, 4
- CO[C@@H]1CN(C)C(=O)c2cc(NS(=O)(=O)CC(F)(F)F)ccc2OC[C@@H](C)N(C(=O)NC(C)C)C[C@@H]1C
 : -5, 5
- Cc1cccc(S(=O)(=O)N2CC[C@@H]3[C@H]2c2cc(Br)ccc2N(C)[C@H]3CO)c1
 : u, x
- C[C@@H]1CN([C@@H](C)CO)C(=O)c2ccccc2-c2ccccc2CO[C@H]1CN(C)Cc1ccccc1C(F)(F)F
 : u, x

This is a subset; the hit share may differ from the screen's.
